# eIF4H FP inh: inhibitors of RNA binding by human eIF4H | Q15056 | eIF4H fluorescence polarization binding assay | inhibition, % at 35 µM | 290,000 tested, 0.94% active | AID 2012;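 active means 50% or more with normal probe brightness, or confirmed in later tests; inconclusive means above 50% with abnormal brightness, or retests that disagree; inactive means below 50% or failed in later tests; about a fifth of its hits are not listed in these tables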;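 further: calls also rest on retests at 20 µM and on dose response follow-up; 0% = protein and probe with vehicle and 100% = probe without protein; strong numbers were not always called active; many hits fall short of the cut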
# MT1-MMP act inh: MT1-MMP (human) activation inhibition | P50281 | HT1080 RFP-PRO-GFP cells, GFP/RFP ratio fluorescence, overnight; percent of plate control window, DMSO zero | GFP/RFP ratio change, % at 20 µM | 360,000 tested, 0.061% active | AID 651647;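 active means GFP/RFP ratio change of at least 30% with cell ATP level not reduced by more than half and red fluorescence within 50% of control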; further: strong numbers were not always called active
#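 Material – HT1080 RFP-PRO-GFP cells · Control set – DMSO wells and RFP-L50D-GFP cells · Incubation – overnight cell settling, then overnight compound exposure, 37 °C, 5% CO2 · Compound dosing – single-point 20 µM compound, 1% DMSO · Read-out – GFP/RFP fluorescence ratio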
# Env fusion inh: HIV envelope-mediated fusion inhibition; HeLa-JRFL Env/CEM21 cell fusion, luciferase; inhibition, % at 12.3 µM; 360,000 tested, 1.1% active; AID 651610;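 active means mean replicate inhibition score of at least 50 and every replicate individually at or above 50; inconclusive means only one of the two criteria met; inactive means mean below 50 and not all replicates reaching 50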;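 further: 0% = plate neutral controls and 100% = maraviroc near 300 nM; one replicate is shown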
# Yeast UUG start: yeast start codon fidelity modulation; 350,000 tested, 0.13% active; S. cerevisiae UUG-firefly luciferase reporter, luminescence/redox ratio; activity score, % at 18.7 µM;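 active means replicate mean at a twofold rise or more, about +100% in these data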;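 further: firefly luciferase made from a UUG start codon reports start codon fidelity; reporter light over untreated wells divided by growth signal over untreated wells; some hits fall short of that in this replicate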
# PABP polyA inh: blocks human PABP binding to poly(A) RNA. P11940. fluorescence polarization. inhibition, % at 35 µM. 290,000 tested, 1% active;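 active means 50% or more with normal probe brightness, or confirmed in later tests; inconclusive means above 50% with abnormal brightness, or retests that disagree; inactive means below 50% or failed in later tests; about a fifth of its hits are not listed in these tables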;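 further: calls also rest on retests at 20 µM and on dose response follow-up; controls were probe without protein and protein plus probe with vehicle; some compounds called inactive have numbers as strong as hits; many hits fall short of the cut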
# Target sequence (P11940 whole entry, looked up): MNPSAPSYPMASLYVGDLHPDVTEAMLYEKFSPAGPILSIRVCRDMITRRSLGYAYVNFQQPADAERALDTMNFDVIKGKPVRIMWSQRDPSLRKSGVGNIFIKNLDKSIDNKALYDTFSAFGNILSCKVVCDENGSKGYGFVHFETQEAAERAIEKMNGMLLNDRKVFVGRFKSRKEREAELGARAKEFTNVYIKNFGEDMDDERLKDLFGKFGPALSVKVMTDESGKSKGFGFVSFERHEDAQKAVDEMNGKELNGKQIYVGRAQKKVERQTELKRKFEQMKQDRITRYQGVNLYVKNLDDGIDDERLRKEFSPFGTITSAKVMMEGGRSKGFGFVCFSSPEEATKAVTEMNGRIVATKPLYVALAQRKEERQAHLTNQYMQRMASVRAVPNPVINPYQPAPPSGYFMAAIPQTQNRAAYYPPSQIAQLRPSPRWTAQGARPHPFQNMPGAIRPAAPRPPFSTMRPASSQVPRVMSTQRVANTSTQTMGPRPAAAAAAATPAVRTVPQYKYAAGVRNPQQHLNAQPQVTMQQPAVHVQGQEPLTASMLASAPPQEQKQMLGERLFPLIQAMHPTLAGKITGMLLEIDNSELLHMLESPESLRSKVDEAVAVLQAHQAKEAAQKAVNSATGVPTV
# CSC inhib: blocks cancer stem cells | 300,000 tested, 1.1% active | cancer stem cell-like cells viability, luminescence | AID 2717 | inhibition, % at 7.5 µM;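 active means mean at 75% or more and at least half the replicates too; inconclusive means mean and replicates disagree; tested in HMLE shEcad cells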;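 further: 0% = median of negative and 100% = median of positive control wells; the first replicate is given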
# Rce1 inh: inhibitors of yeast Ras-converting enzyme | yeast membranes, quenched prenylated peptide cleavage fluorescence | calls only | 290,000 tested, 0.27% active;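 active means fall in fluorescence gain of 50% or more versus controls, with final raw signal at or below 3038400; inconclusive means same 50% fall but final raw signal above 3038400; inactive means fall in fluorescence gain under 50%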;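 further: plate controls were neutral control wells for no effect and wells lacking membranes for full effect; tested at 10 µM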
# MT1-MMP act inh RFP: further read-out of MT1-MMP act inh, marked with its call; RFP signal change, %; measured here: RFP expression control read;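 0 = vehicle wells; hits needed this value within 50% of zero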
# Active calls of the source: *; i = inactive; ? = inconclusive; / = no result given.
1. c1ccc(-c2cc3ccccc3cn2)cc1
2. Cc1cccc(C(=O)NCC(=O)N2CCCCCCC2)c1
3. O=C1OCCN1C(=O)[C@H]1[C@H](c2ccccc2)C(c2ccccc2)=NN1c1ccc(Br)cc1
4. CCc1nnc(NC(=O)CSc2nc3cc(OC)ccc3cc2C)s1
5. CCOC(=O)CNC(=O)CSc1nnc(NC(=O)c2ccc(C)cc2)s1
6. CC(C)CCN1CCN(Cc2cnc(N3CCCC3)s2)CC1CCO (configuration not stated)

assay / compound	1	2	3	4	5	6
eIF4H FP inh	/	/	/	-1	2	-7
MT1-MMP act inh	0	1	-1	-3	1	0
MT1-MMP act inh RFP	1	3	3	-1	4	4
Env fusion inh	-152	-8	-64	13	19	4
Yeast UUG start	-16	-19	-6	/	/	4
PABP polyA inh	/	/	/	-2	5	-5
CSC inhib	-4	-7	/	-3	2	-6
Rce1 inh	/	/	/	i	i	i

7. O=C(N/N=C/c1ccccn1)c1ccc2nc[nH]c2c1
8. CC(=O)c1cn(C)c(=O)[nH]c1=O
9. COc1cccc(NC(=O)CN(C)C(=O)c2cc(-c3ccccc3)nc3ccccc23)c1
10. Cc1ccc(NC(=O)COC(=O)CCC2CCCC2)cc1S(=O)(=O)N1CCOCC1
11. Cc1ccc(OCCN2C(=O)CSC2=O)cc1
12. CN(C1CCCCC1)S(=O)(=O)c1cc2c(cc1Cl)NC(=O)CO2

assay / compound	7	8	9	10	11	12
eIF4H FP inh	4	4	/	/	-6	23
MT1-MMP act inh	-12	-1	4	-2	4	-4
MT1-MMP act inh RFP	-10	1	-4	-1	-1	-5
Env fusion inh	17	9	23	-8	-7	-1
Yeast UUG start	-7	1	/	0	-12	-7
PABP polyA inh	-3	-8	/	/	-9	5
CSC inhib	-3	3	-20	-11	-16	-10
Rce1 inh	i	i	i	/	i	i

13. Cc1nc(N2CCN(Cc3ccccc3)CC2)nc2c1C(=O)CCC2
14. COc1ccccc1NC(=O)CN1CCN(CC(=O)Nc2ccc(C)c(F)c2)CC1
15. Cc1ccccc1OCCn1c(=S)[nH]c2c(N)ncnc21
16. CCN1C(=O)/C(=C/c2c(C)nn(C)c2C)SC1=S
17. O=C(c1cc(COc2ccc(F)cc2Cl)on1)N1CC[C@@H]2CCCC[C@H]2C1
18. CSc1ncccc1C(=O)OCC(=O)NCc1ccccc1

assay / compound	13	14	15	16	17	18
eIF4H FP inh	-4	-5	-2	-6	1	/
MT1-MMP act inh	0	-3	14	9	2	3
MT1-MMP act inh RFP	-10	-4	-2	2	3	5
Env fusion inh	22	30	-1	/	4	-7
Yeast UUG start	-6	-4	-21	-18	-3	-16
PABP polyA inh	-11	-3	0	10	-9	/
CSC inhib	-1	3	-5	/	22	-16
Rce1 inh	i	i	i	i	i	/

19. COc1ccccc1CNc1ncnc2sccc12
20. COc1cc(/C=N/n2c(-c3cc(C)[nH]n3)n[nH]c2=S)ccc1O
21. CCn1c(CCC(=O)O)nc2cc(S(=O)(=O)N3CCOCC3)ccc21
22. Cc1cc(C)c(S(=O)(=O)NCc2cn3c(C)csc3n2)c(C)c1
23. CCOC(=O)c1cc(-c2ccccc2)sc1NC(=O)C(C)N1C(=O)c2ccccc2C1=O (configuration not stated)
24. CCOCCCNC(=S)N1CCN(c2nc(-c3ccccc3)cs2)CC1

assay / compound	19	20	21	22	23	24
eIF4H FP inh	-10	-5	/	-8	-5	-10
MT1-MMP act inh	8	-5	-1	-1	-7	4
MT1-MMP act inh RFP	-28	3	-3	0	-6	-23
Env fusion inh	19	22	-11	/	-9	36
Yeast UUG start	-7	/	-22	-17	/	-34
PABP polyA inh	-3	1	/	-6	-2	-7
CSC inhib	10	-6	-6	-10	3	1
Rce1 inh	i	i	/	i	i	i

25. CCN(Cc1ccccc1)C(=O)CCNS(=O)(=O)c1cc(Br)cnc1N
26. Cc1cc2c(cc1C)[n+](C)cn2CC(O)COCc1ccccc1 (configuration not stated)
27. CCOc1ccc(NC(=O)C2CCN(S(=O)(=O)c3ccc4c(c3)CC(C)N4C(C)=O)CC2)cc1 (configuration not stated)
28. Cc1ccccc1C(=O)NNS(=O)(=O)c1cccc([N+](=O)[O-])c1
29. CN(C)CCn1c2c(c(SCC(=O)N3CCc4ccccc43)nc1=O)CCCC2
30. CCOC(=O)C1CCN(C(=O)c2ccc3snnc3c2)CC1

assay / compound	25	26	27	28	29	30
eIF4H FP inh	/	0	/	-3	/	-7
MT1-MMP act inh	1	-5	3	1	-6	6
MT1-MMP act inh RFP	-1	-2	-13	0	0	2
Env fusion inh	-9	-41	12	-7	-1	/
Yeast UUG start	2	/	2	-17	-11	-9
PABP polyA inh	/	22	/	3	/	-15
CSC inhib	-6	-1	-2	-6	-6	/
Rce1 inh	i	i	i	i	i	i

# The final 4 compounds of the part above come first, to join the parts.
27. CCOc1ccc(NC(=O)C2CCN(S(=O)(=O)c3ccc4c(c3)CC(C)N4C(C)=O)CC2)cc1 (configuration not stated)
28. Cc1ccccc1C(=O)NNS(=O)(=O)c1cccc([N+](=O)[O-])c1
29. CN(C)CCn1c2c(c(SCC(=O)N3CCc4ccccc43)nc1=O)CCCC2
30. CCOC(=O)C1CCN(C(=O)c2ccc3snnc3c2)CC1
31. CN(C)c1ccnc(Nc2ccccc2)c1C#N
32. COc1ccc(OC)c(CCNC(=O)CCc2nnc3ccc(N4CCOCC4)nn23)c1
33. c1ncn(C23CC4CC(CC(C4)C2)C3)n1
34. COc1ccc(CNC(=O)CSc2nc3ccc(C)cc3[nH]2)cc1OC
35. COCCNC(=O)C1(C)CCCN(Cc2cc(-c3ccccc3)n(C)n2)C1 (configuration not stated)
36. O=C(CN1CCOCC1)Nc1ccc(C2CCCCC2)cc1

assay / compound	27	28	29	30	31	32	33	34	35	36
eIF4H FP inh	/	-3	/	-7	-1	-9	1	-3	/	2
MT1-MMP act inh	3	1	-6	6	0	-1	3	1	1	-4
MT1-MMP act inh RFP	-13	0	0	2	1	4	2	4	4	0
Env fusion inh	12	-7	-1	/	9	1	17	-4	-6	-14
Yeast UUG start	2	-17	-11	-9	-12	-20	/	-14	-13	-3
PABP polyA inh	/	3	/	-15	3	9	17	-1	/	-6
CSC inhib	-2	-6	-6	/	-6	-8	-21	13	/	-13
Rce1 inh	i	i	i	i	/	i	i	i	/	i

37. COc1cccc(C(O)c2nc(-c3cccc(C#N)c3)cs2)c1 (configuration not stated)
38. Cc1ccc(CCCNC(=O)C2CCC(=O)N(Cc3cccc(F)c3)C2)cc1 (configuration not stated)
39. O=C(CCCn1c(=S)[nH]c2ccccc2c1=O)N1CCN(c2cccc(Cl)c2)CC1
40. COc1ccc(C(=O)C(=NNc2ccccc2)c2ccc(OC)cc2)cc1
41. COc1ccc(S(=O)(=O)N2CCC(C(=O)NCc3ccco3)CC2)cc1
42. CCN(CC)S(=O)(=O)c1ccc2oc(C(=O)N3CCOCC3)c(C)c2c1

assay / compound	37	38	39	40	41	42
eIF4H FP inh	/	-3	-11	/	3	-5
MT1-MMP act inh	-1	6	-4	-3	5	7
MT1-MMP act inh RFP	-4	2	-9	-2	3	10
Env fusion inh	-9	4	?	-15	4	-77
Yeast UUG start	5	-7	-25	-16	0	1
PABP polyA inh	/	-2	-9	/	21	1
CSC inhib	/	9	33	/	0	-11
Rce1 inh	/	i	i	/	i	i

43. c1ccc(-c2n[nH]c3c2CCC3)cc1
44. O=S(=O)(NCCNc1nccc(C(F)(F)F)n1)c1ccccc1
45. CC(C)CN(C(=O)COC(=O)c1ccc2ccccc2n1)C1CCS(=O)(=O)C1 (configuration not stated)
46. CCOC(=O)c1cc(C)sc1NC(=O)CN1CCN(C(=O)c2ccco2)CC1
47. Cc1cc(C)c2c(n1)SCC(=O)N2CC(=O)Nc1cccc(Cl)c1
48. CN(c1ccc(C(=O)N/N=C/c2cccc([N+](=O)[O-])c2)cc1)S(=O)(=O)c1ccccc1

assay / compound	43	44	45	46	47	48
eIF4H FP inh	1	0	6	1	-4	5
MT1-MMP act inh	3	1	3	-2	-3	3
MT1-MMP act inh RFP	4	2	5	-5	4	-9
Env fusion inh	/	4	6	12	-9	-18
Yeast UUG start	-15	/	/	15	-10	-11
PABP polyA inh	-6	-4	6	0	-2	1
CSC inhib	-9	3	2	19	3	0
Rce1 inh	i	i	i	i	i	i

49. CCOC(=O)c1c(C)c2c(=O)[nH]cnc2n1-c1ccccc1
50. CCOC(=O)C(C)N1N=C(/C=C/c2ccc(OC)cc2)CCC1=O (configuration not stated)
51. COc1cccc(N(C(=O)Cn2nnc(-c3ccc(C)cc3)n2)C(C(=O)NC(C)(C)C)c2c[nH]c3ccccc23)c1 (configuration not stated)
52. CCOc1ccccc1C(=O)NC(C(=O)Nc1cccnc1)C(C)C (configuration not stated)
53. CCOC(=O)C1=C(C)N=c2s/c(=C\c3ccncc3)c(=O)n2C1c1ccc2c(c1)OCO2 (configuration not stated)
54. Cc1nnc(NC(=O)CSc2nc3[nH]ncc3c(=O)[nH]2)s1

assay / compound	49	50	51	52	53	54
eIF4H FP inh	1	-11	-1	5	-9	4
MT1-MMP act inh	-13	1	-30	2	-21	-1
MT1-MMP act inh RFP	-8	1	-22	5	-16	4
Env fusion inh	49	/	6	-21	/	10
Yeast UUG start	/	10	-14	/	-9	-20
PABP polyA inh	10	2	-4	12	12	3
CSC inhib	-18	/	-5	-5	3	-13
Rce1 inh	i	i	i	i	i	i

55. Cn1cc(C(=O)Nc2ccc(Cl)cc2)c(C(F)(F)F)n1
56. COc1ccc(S(N)(=O)=O)cc1C(=O)OCCCOC(=O)c1cc(S(N)(=O)=O)ccc1OC
57. CSc1ncnc2c1ncn2CCCNCCCc1ccccc1
58. C=CCN(c1ccccc1)S(=O)(=O)c1ccc2c(c1)NC(=O)C(C)S2 (configuration not stated)
59. Nc1ncc(-c2ccc(F)cc2)nc1N1CCN(CCO)CC1
60. CC1=CC=CC2=NC(=O)CC(C)(C(=O)N(CC(=O)NC3CCCC3)c3ccc(F)cc3)N12 (configuration not stated)

assay / compound	55	56	57	58	59	60
eIF4H FP inh	-4	12	/	-10	/	-3
MT1-MMP act inh	4	-4	6	-4	0	2
MT1-MMP act inh RFP	3	0	2	-6	7	4
Env fusion inh	4	-4	5	-20	-18	-3
Yeast UUG start	-10	0	-20	-1	-18	-6
PABP polyA inh	-3	1	/	-5	/	2
CSC inhib	-6	14	/	-27	/	/
Rce1 inh	i	i	/	i	/	?

61. CC(=O)c1c(C)[nH]c(C(=O)NCC2CCCCC2)c1C
62. Clc1ccc2[nH]c3c(c2c1)CCc1cn[nH]c1-3
63. N#C/C(=C\c1ccc(-c2ccc(C(=O)O)cc2)o1)c1nc2ccccc2[nH]1
64. c1cncc(-c2nnc3n2C2(CCCCC2)Cc2ccccc2-3)c1
65. Nc1nc(-c2ccccc2)c(CCCOc2ccc(NC(=O)CBr)cc2)c(=O)[nH]1
66. CN(CC(=O)Nc1ccc(Cl)c(C(F)(F)F)c1)C(=O)C1(c2ccccc2)CC1
67. COc1ccc(C(C)=O)cc1COC(=O)C1CC(=O)N(Cc2ccccc2)C1 (configuration not stated)
68. COc1ccc(OCCOCCN2CCOCC2)cc1

assay / compound	61	62	63	64	65	66	67	68
eIF4H FP inh	0	6	?	-11	/	/	-6	5
MT1-MMP act inh	4	8	-142	6	-2	/	-5	0
MT1-MMP act inh RFP	3	4	-1	3	-1	/	1	0
Env fusion inh	-15	/	-3	/	7	56*	/	18
Yeast UUG start	-6	-20	/	-21	-4	-4	15	-10
PABP polyA inh	-2	1	?	-8	/	/	-2	18
CSC inhib	-8	25	/	3	/	11	3	13
Rce1 inh	i	i	/	i	/	i	i	i

# Source: PubChem
